Screening data deposited in PubChem BioAssay by several laboratories.
FGF22 binding = binders of recombinant human FGF22 by thermal shift; AID 651658; 340,000 compounds, 1.5% hits; SYPRO orange fluorescence; percent of sucrose octasulfate shift, DMSO zero; Q9HCT0; calls only at 9.99 µM;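 active = melting point raised past a set limit in the mean and every replicate; inconclusive = no clear call; three in four hits are not shown here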
Target sequence (Q9HCT0 whole entry, looked up): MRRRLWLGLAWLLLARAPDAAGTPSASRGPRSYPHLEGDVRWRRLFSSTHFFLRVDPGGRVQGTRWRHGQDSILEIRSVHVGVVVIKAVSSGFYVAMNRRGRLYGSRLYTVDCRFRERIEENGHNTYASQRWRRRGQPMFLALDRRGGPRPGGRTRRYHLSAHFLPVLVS
Beta apoptosis = beta cell apoptosis inhibition | INS-1E cytokine-induced death, ATP luminescence, 48 h; percent of positive-control rescue, neutral wells zero | protection from apoptosis, % (no concentration beside the values) | 300,000 compounds, 0.8% hits | AID 435005;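 active = all replicates at 75% or more, or half of them and the mean; inconclusive = half reach 75% but not the mean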;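 note: 0% = cytokine-treated negative control wells and 100% = positive control rescue; higher means more ATP so stronger rescue from cytokine killing; wells of about 40 µL received 100 nL stock; the first replicate is given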
AF4-AF9 inh = inhibitors of human MLL-AF4/AF9 interaction | P42568 | AlphaScreen, biotin-AF4 peptide binding to FLAG-AF9 | inhibition, % at 10 µM | 350,000 compounds, 0.47% hits | AID 651704;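 active = every replicate reaching a set inhibition limit, whatever the replicate mean, cut at about 25% in these data; inconclusive = mean inhibition reaches that limit but some replicates miss it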;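 note: 0% = plate neutral control median and 100% = total signal loss; the record names both 10 and 1 µM as test concentration; the first replicate is given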
Target sequence (P42568 whole entry, looked up): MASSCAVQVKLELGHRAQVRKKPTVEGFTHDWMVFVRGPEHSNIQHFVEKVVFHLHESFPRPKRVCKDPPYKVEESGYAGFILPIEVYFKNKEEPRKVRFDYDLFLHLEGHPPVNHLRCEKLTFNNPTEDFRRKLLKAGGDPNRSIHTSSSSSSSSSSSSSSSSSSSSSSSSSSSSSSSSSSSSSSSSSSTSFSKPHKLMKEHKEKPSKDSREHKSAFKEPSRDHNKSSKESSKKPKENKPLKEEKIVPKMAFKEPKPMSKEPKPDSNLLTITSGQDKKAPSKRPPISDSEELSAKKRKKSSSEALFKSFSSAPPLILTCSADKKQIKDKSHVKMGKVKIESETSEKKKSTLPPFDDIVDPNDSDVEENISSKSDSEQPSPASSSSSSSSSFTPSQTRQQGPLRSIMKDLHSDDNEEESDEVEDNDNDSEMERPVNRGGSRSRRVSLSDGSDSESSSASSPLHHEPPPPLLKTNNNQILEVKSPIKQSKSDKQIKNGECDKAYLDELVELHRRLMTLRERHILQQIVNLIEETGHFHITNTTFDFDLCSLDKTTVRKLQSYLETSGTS
UCH37 inh = human UCH37 deubiquitinating enzyme inhibition. AID 588478. 330,000 compounds, 0.33% hits. inhibition, % (concentration not given with the values). purified proteasome/UCH37, Ub-AMC cleavage fluorescence;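 active = mean of two replicates above 20%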;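 note: 0% = compound-free wells with enzyme and 100% = wells lacking proteasome; stock transfer was 100 nL into about 20 µL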
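Signal – fluorescence, ex 355 nm, em 460 nm · System – Proteasome-bound UCH37 · Input – 0.15 nM proteasome as dispensed · Timing – 30 min preincubation with enzyme, 25 min cleavage at room temperature · Read-out basis – percent inhibition of cleavage signal versus uninhibited and no-proteasome wells · Medium – Tris-HCl pH 7.4 with ATP-MgCl2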
E coli growth = inhibitors of Escherichia coli growth; OD600, 23 h; hits give low values; OD600 absorbance (no concentration beside the values); 330,000 compounds, 0.21% hits; AID 1053175;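 active = OD600 absorbance below the run mean of sample wells minus 3.6 SD, in any replicate, cut at about 0.56 in these data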;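 note: stock transfer was 300 nL into about 60 µL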
A1 inh = inhibitors of the anti-apoptotic protein A1, read as caspase activation. MEF A1-2A-BIM cells, Caspase-Glo 3/7 luminescence, 3 h; percent of clofoctol response, vehicle zero. 330,000 compounds, 0.066% hits. caspase activation, % (no concentration beside the values). AID 2462;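 active = over half of replicate activation scores above 10%, or exactly half above 10 with the replicate mean above 10; inconclusive = replicate mean below 10 yet half the replicates above 10; inactive = over half of replicates below 10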;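 note: wells of about 30 µL received 50 nL stock; many hits fall short of the cut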
T cruzi repl = T. cruzi replication inhibition. T. cruzi beta-gal in NIH3T3, luminescence, 90 h. 300,000 compounds, 1.4% hits. inhibition, % (no concentration beside the values);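 active = mean inhibition across valid replicates above about 55%, limit read from the data; inconclusive = mean below that limit but half or more replicates reach it; inactive = mean below it, under half of replicates reach it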;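 note: signal also drops with host cell toxicity which is not excluded here; 0% = plate median of DMSO wells and 100% = zero luminescence signal; higher percent means less beta-gal luminescence so fewer parasites; stock transfer was 50 nL into about 50 µL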
rRNA inh HTS = inhibitors of bacterial rRNA selective over humanized ribosomes; E. coli WT GFP vs humanized-ribosome RFP mutants, fluorescence, 24 h; hits give low values; DMSO median 0, no signal -100; GFP signal change (wild-type ribosome), % (test concentration not listed); 350,000 compounds, 1.6% hits; AID 720706;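 active = significant combined selectivity score with lowered wild-type GFP, culture density cut under 30%, mutant RFP and density less affected; inactive = any of these conditions unmet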; note: one replicate is shown; some compounds called inactive have numbers as strong as hits
rRNA inh HTS OD600 = second read-out of rRNA inh HTS, no call of its own (marks repeat the call); OD600 change, %; measured here: OD600 growth;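 optical density of the mix in the first replicate; 0 = DMSO median and -100 = no signal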
rRNA inh HTS RFP = second read-out of rRNA inh HTS, no call of its own (marks repeat the call); RFP signal change, %; measured here: RFP humanized mutant strains;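 first replicate; 0 = DMSO median and -100 = no signal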
Numbers without * were called inactive; i = inactive; ? = inconclusive; · = no result given; & = joins results of further samples. These rows are one share of the data (hit frequency here may not be typical).

compound	FGF22 binding	Beta apoptosis	AF4-AF9 inh	UCH37 inh	E coli growth	A1 inh	T cruzi repl	rRNA inh HTS	rRNA inh HTS OD600	rRNA inh HTS RFP
Cc1csc(NC(=O)CCSCCc2ccccn2)n1	i	0	42*	2.5	0.74	0.8	-12	-2	-1	2.9
COc1ccc(Cl)cc1NC(=O)C1(c2cccs2)CCOCC1	i	-6	-3.7	2.0	0.72	-0.3	2	-26	-24	11
Cc1cc(C)cc(-c2nnc(SCC(=O)c3ccc4c(c3)OCCO4)o2)c1	·	1	·	2.2	0.71	?	-5	·	·	·
CCn1c(SCC(=O)N/N=C(\C)c2ccco2)nnc1-c1ccccc1	i	-2	-14	·	·	-0.3	-10	-10	10	-4.9
CCOC(=O)N1CCN(C(=O)CN2C(=O)c3ccccc3S2(=O)=O)CC1	i	1	-1.1	4.2	0.65	0.4	-2	7	19	-3.2
O=C(c1cc(COc2ccc(F)cc2Cl)on1)N1C[C@H]2CC[C@H]1C2	i	-5	-2.1	-0.1	0.66	-1.2	7	1	-24	1.8
COc1ccc(NC(=O)C2CCC(C(C)(C)C)CC2)cc1S(=O)(=O)N1CCOCC1 (centres undefined)	i	-1	4.4	1.7	0.67	0.1	·	-4	-10	-4.2
O=C(CCS(=O)(=O)c1ccc(Br)cc1)N1CCN(c2ccc(F)cc2)CC1	i	-4	-1.0	5.8	0.69	0.7	3	-4	0	-1.1
CCO/C([O-])=N/c1c[n+](N2CCOCC2)no1	i	-1&-1	-4.3&4.6	2.3&0.9	·	-0.1&0.3	2	·	·	·
O=C(CCl)NNc1nc(-c2ccccc2)c2cc(Cl)ccc2n1	i	0	-1.3	3.6	0.68	-0.2	4	-1	6	1.7
CCOc1ccc(NC(=O)Nc2cc(C(=O)O)ccc2N2CC3CC(C2)c2cccc(=O)n2C3)cc1 (centres undefined)	i	-2	-43	4.8	0.7	-0.2	-10	0	13	-3.3
COCCn1c(SCc2nc3ccccc3s2)nc2ccccc21	·	3	-2.3	0.9	0.66	-0.3	1	-19*	-4.2*	5.8*
Cc1ccc(-n2c(=O)cc(N3CC(C)CC(C)C3)[nH]c2=O)cc1 (centres undefined)	·	-3	·	0.4	0.72	0.6	-19	·	·	·
CC1(C)Cc2c(C#N)c(OCC(=O)c3ccc(Cl)cc3)nc(-c3ccoc3)c2CO1	·	-6	·	-1.5	0.78	?	18	·	·	·
Cc1ccc(C)c(NC2=NCC(=O)N2c2ccc3c(c2)OCCO3)c1	·	0	·	5.3	0.71	-0.1	-7	·	·	·

Gathered by group, the compounds so far with an aryl thioether with sulfur outside any ring.
compound	FGF22 binding	Beta apoptosis	AF4-AF9 inh	UCH37 inh	E coli growth	A1 inh	T cruzi repl	rRNA inh HTS	rRNA inh HTS OD600	rRNA inh HTS RFP
Cc1cc(C)cc(-c2nnc(SCC(=O)c3ccc4c(c3)OCCO4)o2)c1	·	1	·	2.2	0.71	?	-5	·	·	·
CCn1c(SCC(=O)N/N=C(\C)c2ccco2)nnc1-c1ccccc1	i	-2	-14	·	·	-0.3	-10	-10	10	-4.9
COCCn1c(SCc2nc3ccccc3s2)nc2ccccc21	·	3	-2.3	0.9	0.66	-0.3	1	-19*	-4.2*	5.8*

Additional entries follow.
compound	FGF22 binding	Beta apoptosis	AF4-AF9 inh	UCH37 inh	E coli growth	A1 inh	T cruzi repl	rRNA inh HTS	rRNA inh HTS OD600	rRNA inh HTS RFP
CCCn1c(N)c(C(=O)CSc2nnc3n2CCCCC3)c(=O)[nH]c1=O	i	2	-1.5	-1.7	0.69	0.4	·	·	·	·
COc1ccc(Cc2nnc(SCC(=O)N3CCN(c4ccccc4)CC3)o2)cc1	·	2	·	1.6	0.72	0.9	-3	·	·	·
O=C(O)c1ccccc1Cc1nc2cc(Cl)ccc2c(=O)[nH]1	i	-6	-3.1	3.7	0.67	-0.9	-5	9	5	0.5
c1ccc(CN2CCC(Nc3nc(-c4ccccc4)nc4ccccc34)CC2)cc1	·	35	·	3.6	0.73	-2.0	26	·	·	·
CCc1cccc2c(C(=O)COC(=O)c3nccnc3N)c[nH]c12	i	-3	-1.7	-78	0.69	0.8	-2	-11	-24	0.6
Cc1c(CC(=O)Nc2ccc(Cl)cc2)sc2ccc(Cl)cc12	i	5	0.7	5.2	0.73	-0.3	22	-10	9	3.7
Clc1ccc(OCc2nc(-c3ccc(Br)o3)no2)cc1	i	-2	-3.1	4.6	0.73	-0.7	2	0	5	-2.5
COc1ccccc1/C=C/C(=O)OCC(=O)N1CCN(S(=O)(=O)c2ccc(C)cc2C)CC1	i	·	-0.4	-14	0.64	·	·	-9	-8	3.8
CCCOc1ccc(C2CC(=O)NC2=O)cc1 (centres undefined)	i	-5	-1.2	2.5	0.7	-0.1	-1	17	8	0.2
Cc1nc(-c2ccccc2)sc1C1(C)CC(c2cccc([N+](=O)[O-])c2)=NO1 (centres undefined)	i	-5	·	2.0	0.72	-0.1	-6	-3	-1	1.1
CCNC(=O)NC(=O)CSc1ccc(S(=O)(=O)N(C)C2CCCCC2)cn1	i	-4	-2.3	2.2	0.65	1.2	·	1	-1	-2.0
O=C(COC(=O)c1ccccn1)NCc1ccccc1	i	-5	-4.6	3.4	0.73	-0.2	-3	1	18	-1.0
CC(C)Cn1nc(C(=O)Nc2cccc(C(=O)NC3CC3)c2)c2ccccc2c1=O	i	-1	0.1	0.3	0.63	0.5	·	0	-5	-1.8
O=C(COC(=O)c1cc2ccccc2oc1=O)Nc1cccc(Br)c1	i	-2	-5.5	0.4	0.65	1.8	-16	-8	1	-7.5
O=C(CNC(=O)c1ccccc1Br)N/N=C/c1ccco1	i	-4	-4.0	·	·	0.8	-3	2	4	-1.2

Next results follow:
molecule,FGF22 binding,Beta apoptosis,AF4-AF9 inh,UCH37 inh,E coli growth,A1 inh,T cruzi repl,rRNA inh HTS,rRNA inh HTS OD600,rRNA inh HTS RFP
O=C(c1ccc(Oc2cc(Cl)cc(Cl)c2)o1)N1CCCCC1,i,-5,-1.0,8.1,0.64,0.2,24,-49*,-25*,-14*
Nc1nc2n(c1C(=O)c1ccccc1)CCC2,·,-8,·,8.4,0.63,1.2,-2,·,·,·
CC(C)c1cc(C(=O)N/N=C/C(Br)=C/c2ccccc2)n[nH]1,i,14,-1.2,·,·,0.5,-13,-52,-71,-13
Cc1cc(NC(=O)c2cc3ncc(Br)cn3n2)no1,·,1,·,-0.5,0.7,0.3,-6,·,·,·
CC(=O)Nc1ccc(NC(=O)/C=C/c2ccc3c(c2)OCO3)cc1,i,2,-0.9,-20,0.67,-0.6,-11,8,4,0.0
O=C(CNC(=O)c1ccccc1F)OC(C(=O)Nc1cc(C(F)(F)F)ccc1Cl)c1ccccc1 (centres undefined),·,-1,·,0.4,0.72,-0.2,-2,·,·,·
COc1ccccc1NC1=NCC(=O)N1Cc1ccccc1,·,0,·,2.5,0.7,-1.0,1,·,·,·
COc1ccc(OC)c(-c2csc(NC(=O)CSCC(=O)Nc3cc(C)on3)n2)c1,i,-5,-0.9,2.5,0.65,-1.6,·,-1,1,3.6

In a second layout: results already given
COc1ccccc1NC1=NCC(=O)N1Cc1ccccc1
- FGF22 binding: ·
- Beta apoptosis: 0
- AF4-AF9 inh: ·
- UCH37 inh: 2.5
- E coli growth: 0.7
- A1 inh: -1.0
- T cruzi repl: 1
- rRNA inh HTS: ·
- rRNA inh HTS OD600: ·
- rRNA inh HTS RFP: ·

CC(C)c1cc(C(=O)N/N=C/C(Br)=C/c2ccccc2)n[nH]1
- FGF22 binding: i
- Beta apoptosis: 14
- AF4-AF9 inh: -1.2
- UCH37 inh: ·
- E coli growth: ·
- A1 inh: 0.5
- T cruzi repl: -13
- rRNA inh HTS: -52
- rRNA inh HTS OD600: -71
- rRNA inh HTS RFP: -13

The list continues:
molecule,FGF22 binding,Beta apoptosis,AF4-AF9 inh,UCH37 inh,E coli growth,A1 inh,T cruzi repl,rRNA inh HTS,rRNA inh HTS OD600,rRNA inh HTS RFP
COc1ccc(Br)c(C(=O)NC2CCCC2)c1,·,1,-0.8,1.7,0.67,-0.4,-12,14,12,-1.7
Cc1ccc(C(=O)COC(=O)c2ccccc2N2C(=O)C3C4CCC(C4)C3C2=O)cc1C (centres undefined),·,-4,·,3.3,0.73,-0.1,5,·,·,·
O=C1CN(C(=O)COC(=O)COc2ccc3c(c2)CCC3)c2ccccc2N1,·,4,·,3.1,0.72,-2.2,-1,·,·,·
Cc1cnc(C(=O)N2CCN(S(=O)(=O)c3ccc4ccccc4c3)CC2)cn1,·,-2,·,1.1,0.69,0.0,-8,·,·,·
CCOC(=O)c1cc(-c2ccccc2)sc1NC(=O)CC(C)C,·,3,·,4.5,0.73,0.6,11,·,·,·
COc1cccc(-n2c(C)nn(C)c2=O)c1,·,-8,·,5.5,0.71,·,-3,·,·,·
CCOc1ccccc1CN1CCC(Oc2cccc(C(=O)NCCOC)c2)CC1,i,-6,-1.1,4.5,0.7,-0.4,-9,15,3,-1.2
Cc1ccc(CNC(=O)c2ccc(N3CCCC3=O)cc2)cc1,·,-16,·,-1.9,0.73,-0.1,-11,·,·,·
COCC(=O)N[C@@H]1c2cc(OC)c(OC)cc2C[C@H]1OCc1ccccc1,i,·,-7.6,-0.8,0.69,·,·,0,9,-8.7
CCc1c(C)nc(N2CCN(c3ccccc3)CC2)[nH]c1=O,i,-11,2.7,1.7,0.67,0.5,0,-3,5,1.0
